Compound activity (PubChem BioAssay)
DRD3 agonist = D3 dopamine receptor (human) agonism | P35462 | D3R DiscoveRx beta-arrestin cells, luminescence, 90 min | max activation, % | 410,000 compounds, 0.58% hits | AID 652048; in the data active means max activation above about 30%; further: 0% is about no effect; mostly tested at two doses, the higher about 12 µM
Target sequence (P35462 whole entry, looked up): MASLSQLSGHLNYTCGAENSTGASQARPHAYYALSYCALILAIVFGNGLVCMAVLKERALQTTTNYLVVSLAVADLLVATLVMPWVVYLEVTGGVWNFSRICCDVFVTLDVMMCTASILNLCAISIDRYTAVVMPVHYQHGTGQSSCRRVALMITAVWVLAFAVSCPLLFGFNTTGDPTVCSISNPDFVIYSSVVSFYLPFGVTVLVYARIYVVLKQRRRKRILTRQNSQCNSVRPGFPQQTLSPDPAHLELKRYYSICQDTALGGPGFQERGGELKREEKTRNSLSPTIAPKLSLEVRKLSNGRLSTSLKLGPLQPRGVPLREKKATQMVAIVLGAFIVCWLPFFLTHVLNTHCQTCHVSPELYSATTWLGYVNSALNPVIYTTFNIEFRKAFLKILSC
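Cells at 1500/well, incubated overnight, then treated with pinned compounds (dopamine as control) for 90 min at 37 degrees C. DiscoveRx reagent added for 30 - 60 minutes at room temperature; luminescence read.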
CCT chaperon mod = cytosolic chaperonin activity modulation | purified chaperonin ATPase assay, HTRF ADP detection, 30 min | activity change, % (no concentration beside the values), hits read low | 360,000 compounds, 0.3% hits; in the data active means activity change below about -30%; further: on the % scale 0 is the no-effect control and ±100 the full control effect
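TRiC (40 or 20 nM final, by batch activity) in 30 mM Tris pH 7.4, 100 mM KCl, 5 mM MgCl2, 1 mM DTT was treated with compound at 76 uM single dose, then 10 uM ATP, 30 min at 37 °C. ADP was read by HTRF Transcreener.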
PTHR1 ag = activates the human parathyroid hormone receptor PTHR1; Q03431; HEK293 GP2 PTHR1 cells, GloSensor cAMP luminescence, 1 h; Potency, µM (series often up to 115 µM), without a hit: at the highest dose activation, most hits filed as activators; 410,000 compounds, 0.075% hits; AID 743266; further: potency means the concentration at half of the fitted maximal effect; nearly all actives have a fitted effect of over 55% in size; some results filed as inactive show a strong effect at the top dose; inactives centre near -15; many of its hits are not listed in these tables
Target sequence (Q03431 whole entry, looked up): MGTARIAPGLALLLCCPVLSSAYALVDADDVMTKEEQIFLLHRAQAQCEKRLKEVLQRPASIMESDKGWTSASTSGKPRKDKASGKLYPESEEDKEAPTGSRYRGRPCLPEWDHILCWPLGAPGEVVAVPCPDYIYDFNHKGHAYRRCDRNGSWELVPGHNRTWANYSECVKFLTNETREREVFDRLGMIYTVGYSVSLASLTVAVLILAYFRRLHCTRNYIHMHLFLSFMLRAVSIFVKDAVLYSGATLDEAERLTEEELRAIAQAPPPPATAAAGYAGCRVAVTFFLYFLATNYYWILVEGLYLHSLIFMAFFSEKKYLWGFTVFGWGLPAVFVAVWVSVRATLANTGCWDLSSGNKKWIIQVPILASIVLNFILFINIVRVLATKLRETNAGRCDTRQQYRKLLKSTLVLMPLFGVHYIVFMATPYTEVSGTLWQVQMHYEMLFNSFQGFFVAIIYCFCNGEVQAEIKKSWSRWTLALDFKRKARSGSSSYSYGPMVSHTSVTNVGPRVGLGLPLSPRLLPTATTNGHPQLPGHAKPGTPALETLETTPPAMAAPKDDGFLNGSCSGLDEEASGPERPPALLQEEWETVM
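HEK-293-derived GP2 cells expressing PTHR1 and a GloSensor cAMP reporter, 3,000/well, plated overnight, given luciferin plus IBMX (each 0.5 mM as added) for 1 h at 37 °C, then compound for 1 h at 37 °C. Luminescence was read after 15 min at room temperature.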
DRD3 antagonist = antagonists of human D3 dopamine receptor. max response, negative = inhibition, %. AID 652054. D3R cells, DiscoveRx beta-arrestin luminescence, antagonist mode; active compounds read low. 360,000 compounds, 2.5% hits; in the data active means max response below about -50%; inconclusive means no clear call, values can overlap the other calls; further: on the % scale 0 is the no-effect control and ±100 the full control effect; mostly tested at two doses, the higher about 12 µM
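Cells expressing the human receptor were seeded at 1500 cells/well, incubated overnight at 37 degrees C in 5% CO2, then exposed to library compounds with dopamine controls for 90 minutes at 37 degrees C before luminescent detection.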
Akt phos inh = inhibitors of Akt phosphorylation. activity change, % for hits at 50 µM. AID 651550. 360,000 compounds, 0.32% hits. Neuro2A IGF-stimulated pAkt S473 HTRF, 20 min; active compounds read low; in the data active means activity change below about -80%; inconclusive means mostly about -51% to -80%; further: on the % scale 0 is the no-effect control and ±100 the full control effect
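Single-point screen (50 µM final compound) in Neuro2A cells stimulated 20 min with 6 nM IGF at 37 deg C. After lysis, Ser473-phosphorylated Akt read by HTRF (ex 330 nm, em 615/665 nm) as the 665/615 ratio.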
MmCpn inh = blocks the Methanococcus maripaludis chaperonin Mm-Cpn | purified Mm-Cpn ATPase, ADP Transcreener TR-FRET | Potency, µM (top dose mostly 76.9 µM), without a hit: at the top dose activity, negative = inhibition, actives largely listed as inhibitors | 330,000 compounds, 0.031% hits | AID 504842; further: potency means the concentration at half of the fitted maximal effect; on the % scale 0 is the no-effect control and ±100 the full control effect; nearly all actives have a fitted effect of over 80% in size
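Eu-cryptate anti-ADP/ADP-d2 competition gives a ratio inversely related to ADP. Enzyme at 25 nM was pre-exposed to compound for 10 min, then given 10 uM ATP for 30 min, 37°C throughout.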
* hit, by the source's call; i = inactive; ? = inconclusive; . = not tested or not shown; [ ] = another dose, or the depositor's remark. Unless noted, the call rests on the fitted dose curve; in most records, active means well fitted curve in the direction sought with a large enough effect; inconclusive means small, poorly fitted or top-dose-only effect, or another doubt; inactive means no such curve, though single readings can be large; an effect the other way counts as inactive or inconclusive. Not all compounds are listed, so the mix of outcomes need not match the whole.

The first three entries, ahead of the listing:
SMILES | DRD3 agonist | CCT chaperon mod | PTHR1 ag | DRD3 antagonist | Akt phos inh | MmCpn inh
COc1ccc(C2CC(=O)Oc3cc(C)cc(C)c32)cc1 (configuration not stated) | 3 | -2.3 | -9% | 7 | i | 1%
O=C1CCC(=O)N1CN(C(=O)c1ccco1)c1ccccc1 | 0 | -1.1 | i | -4 | i | -2%
CCc1ccccc1S(=O)(=O)c1c(C)cc(C)nc1Cl | 7 | -4.7 | -28% | 12 | i | 1%

All compounds of this part (from the top)
SMILES | DRD3 agonist | CCT chaperon mod | PTHR1 ag | DRD3 antagonist | Akt phos inh | MmCpn inh
COc1ccc(C2CC(=O)Oc3cc(C)cc(C)c32)cc1 (configuration not stated) | 3 | -2.3 | -9% | 7 | i | 1%
O=C1CCC(=O)N1CN(C(=O)c1ccco1)c1ccccc1 | 0 | -1.1 | i | -4 | i | -2%
CCc1ccccc1S(=O)(=O)c1c(C)cc(C)nc1Cl | 7 | -4.7 | -28% | 12 | i | 1%
COc1ccc(NS(=O)(=O)c2ccc(S(=O)(=O)N3CCCC3)cc2)cc1 | -5 | -0.8 | -3%[57.5 µM] | -11 | i | ?
Cc1cc(C)c2c(CN3CCCCC3C)cc(=O)oc2c1 (configuration not stated) | -6 | 1.0 | -10% | -9 | i | -2%
COc1ccc(S(=O)(=O)N2CCN(C(=S)NC3CCCCC3)CC2)cc1 | 4 | 0.3 | i | 6 | i | -1%
COc1ccc(N(CN2C(=O)C3C4C=CC(C4)C3C2=O)C(=O)c2ccco2)cc1 (configuration not stated) | 1 | 2.2 | i | 13 | i | 1%
CCOC(=O)C1=C(N)Oc2cc(C)n(C)c(=O)c2C1c1ccncc1 (configuration not stated) | 2 | -1.8 | i | -8 | i | -10%
Cc1cc(C2(c3ccc(O)c(C)c3)OC(=O)c3ccccc32)ccc1O | -1 | 0.4 | -1% | 17 | i | 3%
CC(C)NC(=O)CN1CCN(C(c2cc3ccccc3o2)c2nnnn2C(C)(C)C)CC1 (configuration not stated) | 4 | -0.1 | -13% | 7 | i | .
CCCCOC(=O)C1CCCC(C(=O)OCCCC)N1 (configuration not stated) | 1 | -0.1 | -16% | 5 | i | -3%
CCC(=O)N(CCC(Cc1ccccc1)c1ccco1)Cc1ccco1 (configuration not stated) | 0 | 0.9 | -36%[inhibitor] | -8 | i | 1%
CCCc1cc(=O)[nH]c(SCC(=O)NCC2COc3ccccc3O2)n1 (configuration not stated) | 5 | -0.3 | 23% | -1 | i | -1%
O=C(COC(=O)c1ccccc1)NCC1CCCO1 (configuration not stated) | 0 | -1.6 | i | -17 | i | 2%
COc1ccccc1C1CC(=O)Oc2cc(C)c(Cl)c(C)c21 (configuration not stated) | 1 | 1.4 | -15% | 31 | i | 0%
COc1cc2ccccc2cc1C(=O)N1CCCC(C(F)(F)F)C1 (configuration not stated) | -6 | -3.9 | -11% | -5 | i | -5%
COc1ccc(C2SC[C@@H](C(=O)O)N2C(C)=O)cc1 (some centres not stated) | -3 | 1.8 | i | -24 | i | 3%
CCC(=O)OC1CC(C)N(C(=O)c2ccccc2)c2ccc(C)cc21 (configuration not stated) | 0 | -3.7 | -3% | ? | i | 0%
COCCCNC(=S)N1CCN(S(=O)(=O)c2ccc(OC)cc2)CC1 | -16 | -3.5 | ? | -14 | i | 2%
COc1ccc(S(=O)(=O)N(CCCN2CCOCC2)Cc2ccc(OC)c(OC)c2)cc1 | -32 | 2.1 | i | -69* | i | 0%
COc1ccc(-c2cnnn2-c2ccc([N+](=O)[O-])cc2)cc1 | 18 | -0.6 | i | 3 | i | 4%
CCOc1ccc(C(=O)CCc2nc3ccccc3s2)cc1 | 10 | 3.8 | -37% | 40 | i | 2%
CCOc1ccc(C2SCC(=O)N2c2c(C)n(C)n(-c3ccccc3)c2=O)cc1 (configuration not stated) | 5 | -2.7 | i | ? | i | 1%
S=c1[nH]nc(-c2cc(-c3ccsc3)n[nH]2)n1-c1cccc2ccccc12 | 10 | 2.1 | i | -13 | i | -2%
CN1CCN(C(=O)CNc2ccc(C(F)(F)F)cc2[N+](=O)[O-])CC1 | -11 | -3.9 | i | -28 | i | 1%
New compounds follow.
SMILES | DRD3 agonist | CCT chaperon mod | PTHR1 ag | DRD3 antagonist | Akt phos inh | MmCpn inh
O=C1CC(c2ccc(F)c(Br)c2)C2=C(CCCC2=O)N1 (configuration not stated) | 5 | -0.7 | i | 5 | i | 0%
Clc1ccc2oc3c(Cl)ncnc3c2c1 | 10 | -2.4 | -14% | 5 | i | 1%
COc1ccc(N/C=C/C(=O)c2ccc(Cl)cc2)cc1 | 1 | -2.2 | i | 16 | i | -2%
Cc1cc(C(=O)N(C)Cc2c(F)cccc2Cl)c2ccccc2n1 | 4 | -0.9 | -20% | 21 | i | 3%
COc1ccc(-c2nnc(SCC(=O)Nc3cc(C)on3)n2C)cc1OC | -5 | -3.0 | 14% | -23 | i | 0%
O=S(=O)(Nc1cccc(C(F)(F)F)c1)c1cnc[nH]1 | 5 | -1.1 | -4%[57.5 µM] | 8 | i | 1%
Cn1c(SCC(=O)c2ccc3c(c2)OCCO3)nnc1C(F)(F)F | 10 | -0.8 | i | 107 | i | -4%
CC1=C(C(=O)Nc2cccnc2)C(c2ccccn2)n2nnnc2N1 (configuration not stated) | -2 | -6.4 | i | 11 | . | 1%
COc1ccc(C2CC(=O)Oc3ccc(C(C)(C)C)cc32)cc1 (configuration not stated) | 18 | 0.7 | i | 5 | i | 2%
Cc1cc(C)c(NC(=O)C2CCCN2CCO)c(C)c1 (configuration not stated) | 1 | 0.5 | -8% | -8 | . | 1%
C=CCn1cnnc1SCC(=O)NCC1COc2ccccc2O1 (configuration not stated) | -5 | -0.3 | i | -18 | i | -2%
CCCc1cc(=O)oc2c(C)c(OCc3nn[nH]n3)ccc12 | -1 | -4.0 | i | 12 | i | 0%
COc1ccc(NC(=O)c2cc(-c3cc(Cl)ccc3C)n[nH]2)cn1 | -15 | -2.8 | -68%[inhibitor] | ? | . | .
CN(Cc1c(F)cccc1Cl)C(=O)c1cnc2ccccc2n1 | 13 | -1.2 | 0% | 7 | i | -6%
O=C1N(c2cccc(Cl)c2)C(c2ccccc2)N2CCCN12 (configuration not stated) | -5 | -0.2 | i | 0 | i | -16%
COc1c(Cl)cc(Cl)cc1CNc1ccc(S(N)(=O)=O)cc1 | 2 | 0.8 | -9% | 10 | i | 1%
O=C(CSc1ccc2c(c1)OCCO2)Nc1ccc(Cl)cn1 | -1 | 0.4 | -38%[inhibitor][57.5 µM] | -3 | i | -1%
Cc1cc2c(c(C)c1Br)C(c1ccc3c(c1)OCO3)CC(=O)O2 (configuration not stated) | -23 | -2.0 | i | -4 | i | -3%
CCCCC[C@@H]1C=C(C(=O)O)[C@H](c2ccc(F)cc2)N1S(=O)(=O)c1ccc(C)cc1 | 14 | 0.8 | -13% | 0 | i | 1%
CCOC(=O)C1=C(c2ccccc2)c2ccccc2OC1C(=O)OCC (configuration not stated) | -15 | -0.8 | -6% | 15 | i | 0%
Cc1cc(C)c(NC(=O)C2CCCN2C(=O)NC2CCCCC2)c(C)c1 (configuration not stated) | 2 | 1.0 | -28% | 20 | i | -1%
CC(C)(C)n1nnnc1C(c1cc2ccccc2o1)N(Cc1ccccc1)Cc1ccccc1 (configuration not stated) | 5 | -0.6 | -80%[inhibitor] | 13 | i | .
CC(=O)Nc1nc(-c2ccc3c(c2)CCN3C(=O)C2CC2)c(C)s1 | -3 | -0.5 | -24% | -1 | i | 2%
NC(=O)c1ccc(-c2c(-c3ccccc3)sc3ccccc23)cc1 | 5 | -1.5 | i | -19 | i | -13%
COc1ccc2c(c1)CCc1c(C(=O)N3CC4(C)CC3CC(C)(C)C4)noc1-2 (configuration not stated) | 13 | -1.7 | i | 7 | i | 1%

Single values from above.
Result for COc1ccc2c(c1)CCc1c(C(=O)N3CC4(C)CC3CC(C)(C)C4)noc1-2 (configuration not stated) under DRD3 antagonist: 7
Result for C=CCn1cnnc1SCC(=O)NCC1COc2ccccc2O1 (configuration not stated) under DRD3 agonist: -5
Result for CCCc1cc(=O)oc2c(C)c(OCc3nn[nH]n3)ccc12 under CCT chaperon mod: -4.0
Result for CN(Cc1c(F)cccc1Cl)C(=O)c1cnc2ccccc2n1 under DRD3 agonist: 13
Result for Cc1cc(C)c(NC(=O)C2CCCN2CCO)c(C)c1 (configuration not stated) under DRD3 antagonist: -8
Result for NC(=O)c1ccc(-c2c(-c3ccccc3)sc3ccccc23)cc1 under CCT chaperon mod: -1.5
Result for O=C1N(c2cccc(Cl)c2)C(c2ccccc2)N2CCCN12 (configuration not stated) under MmCpn inh: -16%

More compounds
SMILES | DRD3 agonist | CCT chaperon mod | PTHR1 ag | DRD3 antagonist | Akt phos inh | MmCpn inh
CCCC(=O)Nc1ccc(Cl)c(-c2nc3ncccc3o2)c1 | 4 | -0.7 | i | 1 | i | -1%
CCOC(=O)C1Oc2ccccc2C(c2ccc(OC)cc2)=C1C(=O)OC (configuration not stated) | -7 | -0.7 | -27% | 0 | i | -1%
COc1ccccc1-c1ccc(=O)n(CC(=O)NCc2ccco2)n1 | 2 | -3.1 | i | 3 | i | 1%
O=C(COc1ccc(Cl)cc1Cl)NNC(=S)NCc1ccco1 | -5 | -0.6 | -56%[inhibitor] | -1 | i | 1%
CSc1nc2c(c(-c3ccc(O)cc3)c1C#N)CCC2 | 1 | 1.4 | -11%[57.5 µM] | -30 | i | -2%
COc1ccc(C(=O)CSc2nc(C)cc(C)n2)cc1C | 7 | -0.7 | -31%[inhibitor] | 7 | i | 0%
O=S(=O)(c1ccc2nc(SCc3cccc(Cl)c3)[nH]c2c1)N1CCOCC1 | 1 | -0.3 | -6% | 0 | i | 2%
COC(=O)c1ccc2nc(-c3cccc(Br)c3)c(Cc3ccccc3)n2c1 | 2 | -2.0 | -33%[inhibitor] | 45 | i | .
COc1cc(C)c(S(=O)(=O)N2CCOCC2)cc1C | -1 | 1.9 | -5%[57.5 µM] | -85* | i | -3%
Cc1[nH]c2ccccc2c1C(=O)C(=O)N1CCN(c2ccccc2)CC1 | -1 | -0.8 | -36%[inhibitor] | -1 | i | 1%
CCOC(=O)C1Oc2ccccc2C(C(=O)OC)=C1C(=O)OC (configuration not stated) | 6 | -0.2 | -4% | 13 | i | 0%
C/C(=N\N=C(c1ccccc1)c1ccccc1)c1ccco1 | -2 | -1.3 | -6% | 12 | i | 2%

Compound profiles (already shown).
S=c1[nH]nc(-c2cc(-c3ccsc3)n[nH]2)n1-c1cccc2ccccc12 in the list: DRD3 agonist = 10; CCT chaperon mod = 2.1; PTHR1 ag = i; DRD3 antagonist = -13; Akt phos inh = i; MmCpn inh = -2%
COc1ccc(NS(=O)(=O)c2ccc(S(=O)(=O)N3CCCC3)cc2)cc1 in the list: DRD3 agonist = -5; CCT chaperon mod = -0.8; PTHR1 ag = -3%[57.5 µM]; DRD3 antagonist = -11; Akt phos inh = i; MmCpn inh = ?
COc1ccc(-c2cnnn2-c2ccc([N+](=O)[O-])cc2)cc1 in the list: DRD3 agonist = 18; CCT chaperon mod = -0.6; PTHR1 ag = i; DRD3 antagonist = 3; Akt phos inh = i; MmCpn inh = 4%
